StopGo RLuc – Primary qHTS Assay for Foot and Mouth Disease Virus Antivirals against NCGC Sytravon and CBC Compound Libraries: Renilla Luciferase Signal | AID 1745857, 2022 | HEK cells with a luciferase reporter of 2A StopGo recoding | 0.32% of 120,000 active | Potency, µM (top dose mostly 57.5 µM), for inactives: top-dose signal change, negative = less light; active means well fitted falling curve with a large enough effect; inconclusive means small, poorly fitted or top-dose-only effect; inactive means no such curve, though single readings can be large or run the other way; further: nearly all actives have a fitted effect of over 55% in size; overnight with compound
StopGo FLuc – Primary qHTS Assay for Foot and Mouth Disease Virus Antivirals against NCGC Sytravon and CBC Compound Libraries: Firefly Luciferase Signal; HEK cells with a luciferase reporter of 2A StopGo recoding; Potency, µM (doses to about 57.5 µM), inactives show top-dose signal change, negative = less light; 0.23% of 120,000 active; active = well fitted falling curve with a large enough effect; inconclusive = small, poorly fitted or top-dose-only effect; inactive = no such curve, though single readings can be large or run the other way; further: nearly all actives have a fitted effect of over 60% in size; overnight with compound
* hit, by the source's call; u = inconclusive; [ ] = remark or other dose. On the % scale 0 is the no-effect control and ±100 the full control effect; potency means the concentration at half of the fitted maximal effect. Some of the compounds tested; count on the stated rates, not on these rows.

Start of the data: the first 3 entries as a preview:
The line under a structure holds: StopGo FLuc | StopGo RLuc
Nc1c(Cl)cc(Nc2ncccc2[N+](=O)[O-])cc1Cl
→ 0% | -14%
COC(=O)CNC(=O)c1cc(-c2ccco2)nc2ccccc12
→ 1% | -5%
Cc1ccc2oc(-c3ccc(C)c(NC(=O)c4ccccc4[N+](=O)[O-])c3)nc2c1
→ 208%[activator] | 10%

The list itself (from the top)
The line under a structure holds: StopGo FLuc | StopGo RLuc
Nc1c(Cl)cc(Nc2ncccc2[N+](=O)[O-])cc1Cl
→ 0% | -14%
COC(=O)CNC(=O)c1cc(-c2ccco2)nc2ccccc12
→ 1% | -5%
Cc1ccc2oc(-c3ccc(C)c(NC(=O)c4ccccc4[N+](=O)[O-])c3)nc2c1
→ 208%[activator] | 10%
CC(C)C[C@@H]1COc2cc(Br)ccc2S(=O)(=O)N1Cc1cn(Cc2ccccc2)nn1
→ -4% | -1%
COc1ccc(NC(=O)C2=C(C)Nc3ncnn3C2c2sccc2C)cc1 (stereo not given)
→ -4% | -6%
CCOc1ccc(CC(=O)NCCc2csc(-c3ccc(C(F)(F)F)cc3)n2)cc1
→ -6% | -9%
COC(=O)C1=C(N)OC2=C(C(=O)CC(C)(C)C2)C1c1cccc(Cl)c1 (stereo not given)
→ 7% | 8%
CCN(CC)c1ccc(CN(C(=O)Cc2coc3ccc(C)cc23)C2CCS(=O)(=O)C2)cc1 (stereo not given)
→ -14% | -11%
Fc1ccc(C2Cc3ccccc3N2)cc1 (stereo not given)
→ 146%[activator] | 23%
CCOc1ccc(OCC)c(S(=O)(=O)n2nnc3ccccc32)c1
→ 5% | 86%[activator]
Cn1ccnc1C(NC(=O)c1nn(C)c(=O)c2ccccc12)c1ccc(Cl)cc1 (stereo not given)
→ 29% | 26%
Cc1ccc(CNC(=O)c2nc(SCc3ccc(F)cc3)ncc2Cl)cc1
→ -8% | -4%
O=S(=O)(Nc1nc2ccccc2nc1NCc1ccccc1Cl)c1cccc2nsnc12
→ 12% | 68%[activator]
CCC(=O)N1CCc2cc(Br)cc(S(=O)(=O)CCC(=O)N3CCN(c4ccccc4F)CC3)c21
→ 84%[activator] | 37%[activator]
CCCN(CC#N)CC(=O)NC(=O)NC(C)(C)C
→ -2% | 0%

The line under a structure holds: StopGo FLuc | StopGo RLuc
Cn1c(=O)c2c(nc(SCC(=O)N3CCOCC3)n2Cc2ccccc2F)n(C)c1=O
→ -2% | -2%
CCCSc1ncc(Cl)c(C(=O)Nc2c(C(=O)c3ccc(F)cc3)oc3ccccc23)n1
→ 23% | -2%
CC(C)CCn1c(=O)c2sccc2n2c(CCCC(=O)NC3CCC(C)CC3)nnc12 (stereo not given)
→ -6% | -6%
Cc1ccc(OCC(=O)Nc2ccc3c(c2)CCC3)c(C(=O)c2cc(C#N)c(=O)n(C3CC3)c2)c1
→ -5% | -12%
CC1(C(=O)c2ccccc2)C(c2ccccc2)C1(C#N)C(N)=O (stereo not given)
→ 14% | 3%
COc1cccc(-n2c(SCC(=O)c3ccc(Cl)cc3)nc3c([nH]c4ccccc43)c2=O)c1
→ 5% | 2%
CN(C)c1ccc(NC(=O)c2ccc3ccccc3c2)cc1
→ 174%[activator] | 8%
CCc1ccc(OCC(=O)Nc2ccc(S(=O)(=O)Nc3ccccc3)cc2)c(Br)c1
→ 2% | 60%[activator]
CSc1ccc(CNC(=O)c2sc3ncnc(N(C)C4CCCCC4)c3c2C)cc1
→ 7% | -8%
N#Cc1ccc(OCC(=O)c2ccc3c(c2)CCCC3)cc1
→ 0% | 0%
O=C(CSc1nnc(-c2ccc(Cl)cc2)n1CC1CCCO1)Nc1ccc2c(c1)OCO2 (stereo not given)
→ 2% | 65%[activator]
Cc1sc2c(c1C)c(=O)n(-c1ccc(Cl)cc1)c(=O)n2Cc1cc(=O)n2cc(Br)ccc2n1
→ -12% | -4%
O=C(Nc1ccc2oc(-c3cccc(Br)c3)nc2c1)c1cccs1
→ 41%[activator] | -4%
CC(Nc1cccc(CO)c1)c1nc2scc(-c3cccs3)c2c(=O)[nH]1 (stereo not given)
→ 42%[activator] | 4%
COc1ccc(NC(=O)CNS(=O)(=O)c2cccs2)c(OC)c1
→ 11% | -7%

The line under a structure holds: StopGo FLuc | StopGo RLuc
O=C(N/N=C/c1ccc(-c2ccccc2)cc1)c1cccs1
→ 29% | 24%
O=C(NC1CCCC1)c1sc2cc(Cl)ccc2c1Cl
→ 125%[activator] | 13%
O=C(NCc1cccc(C(F)(F)F)c1)C1CCN(C(=O)c2cccc3ccccc23)CC1
→ -11% | 35%[activator]
Cc1nc2ccccc2c(C)c1C(=O)OCC(=O)NCC1CCCO1 (stereo not given)
→ 11% | -5%
NCCSc1ncc(C(F)(F)F)cc1Cl
→ 1% | 10%
Cc1ccc(-c2cc(C(=O)Nc3nncs3)c3ccccc3n2)c(C)c1
→ 31%[activator] | -17%
O=C(OCc1nc(-c2cccc(Cl)c2)no1)c1ccc(Cl)s1
→ 16% | 3%
c1ccc(CCOCC2CCNCC2)cc1
→ 5% | 7%
Cc1ccc(NC(=O)Cn2cc(S(=O)(=O)c3ccc(F)cc3)c(=O)c3cc4c(cc32)OCO4)cc1
→ -3% | 9%
COc1cc(C(C)=O)ccc1OCc1ccc(C#N)cc1F
→ 132%[activator] | 3%
Cc1cccc(N2CCN(C(=O)Cn3c(=O)c4cccn4c4ccc(F)cc43)CC2)c1C
→ -12% | -14%
COc1ccccc1CNC(=O)c1ccc2nc(-c3ccccc3)c(-c3ccccc3)nc2c1
→ 3% | 1%
Cc1ccc(CCNC(=O)c2cc3c(s2)-c2ccccc2OC3)cc1
→ -10% | 3%
Cc1ccc(C(=O)COC(=O)CCC(=O)Nc2cc(C(F)(F)F)ccc2Cl)cc1[N+](=O)[O-]
→ -6% | -3%
CN(CC1CC1)C(=O)c1cc(=O)[nH]c2ccc(S(=O)(=O)Nc3ccc(F)cc3)cc12
→ 0% | 182%[activator]

The line under a structure holds: StopGo FLuc | StopGo RLuc
CCCCN(CC)C(=O)CSc1nc2ccccc2c(=O)n1Cc1ccco1
→ u | 17%
Cc1cccc(Nc2nc(-c3ccccc3)cs2)c1C
→ 235%[activator] | 15%
CCCCN(c1ccccc1)S(=O)(=O)c1cc2c3c(c1)C(C)C(=O)N3CCC2 (stereo not given)
→ -1% | -17%
CCc1ccc(C2C(C(=O)Nc3ccc(Cl)cc3)=C(C)Nc3ncnn32)cc1 (stereo not given)
→ -2% | -6%
CC(c1nc(-c2ccccc2)no1)N1CCc2ccccc2C1 (stereo not given)
→ 29% | 8%
CCOc1cc(/C=C2/NC(=O)NC2=O)cc(Cl)c1OCc1ccccc1F
→ 14% | 0%
Cc1nn(-c2nc3c(c(=O)n(CC(N)=O)c(=O)n3C)n2Cc2ccccc2)c(C)c1C
→ -4% | 12%
CCC(C)NC(=O)Cn1c(=O)n(Cc2ccc(C(=O)NCc3ccc(C)cc3)cc2)c(=O)c2ccccc21 (stereo not given)
→ 0% | 3%
CCc1ccc(NC(=O)c2ccccc2SCC(=O)NCc2ccco2)cc1
→ 43%[activator] | 8%
CN(C)c1ccc(NC(=O)c2ccc(N)cc2)cc1
→ u | -8%[1.06 µM]
COc1ccc(CCNC(=O)c2ccc(Cn3c(SCC(=O)NCCC(C)C)nc4cc5c(cc4c3=O)OCO5)cc2)cc1OC
→ -5% | -9%
CC1CCN(CC(=O)N2CCN(S(=O)(=O)c3ccc(F)c(F)c3)CC2)CC1
→ -3% | -13%
O=C(/C=C/c1ccccc1O)c1ccc(Br)cc1
→ 119%[activator] | 75%[activator]
CC(Sc1ccc(Cl)cc1)C(=O)OCc1nc(N)nc(Nc2ccccc2)n1 (stereo not given)
→ 14% | -7%
N#Cc1cc2c(nc1SCC(=O)NCCc1ccccc1)CCCC2
→ 55%[activator] | 7%

The line under a structure holds: StopGo FLuc | StopGo RLuc
COc1cc(-c2c(NC(=O)c3ccc(C)cc3)oc3ccccc3c2=O)cc(OC)c1OC
→ -13% | 0%
CC(=O)Nc1ccc(SCC(=O)c2ccccc2)cc1
→ 144%[activator] | 0%
N#Cc1ccc(OCCn2nc(C(=O)O)c3ccccc3c2=O)cc1
→ 2% | -2%
Cc1cc(=O)oc2cc(OCC(=O)OCC(=O)Nc3ccccc3C(C)C)ccc12
→ -2% | -6%
Cc1[nH]c(=O)[nH]c(=O)c1S(=O)(=O)Nc1ccccc1Cl
→ -6% | -11%
Cc1ccc(CNC(=O)c2ccccc2NC(=O)Cn2cnc3c2c(=O)n(C)c(=O)n3C)cc1
→ 12% | 14%
COc1ccc(CCNC(=O)Cn2cc(C(=O)c3ccccc3)c(=O)c3ccc(C)nc32)cc1OC
→ 4% | 6%
O=C(Nc1ccc(Cn2cncn2)cc1)c1csc(NC2CCCC2)n1
→ -19% | -31%
Cc1nn(-c2ccccc2)c(C)c1CCC(=O)N1CCN(S(=O)(=O)c2ccccc2C#N)CC1
→ 2% | -4%
CNS(=O)(=O)c1cn(CC(=O)N2CCN(c3ccc(OC)cc3)CC2)cc1S(=O)(=O)NC
→ -12% | -6%
COc1ccc(NC(=O)Nc2ccc(C)c(OCc3cc(=O)n4ccccc4n3)c2)cc1OC
→ 40%[activator] | 16%
Cc1ccc2oc(-c3ccc(Cl)c(NC(=O)c4ccc(OC(C)C)cc4)c3)nc2c1
→ 134%[activator] | -9%
O=[N+]([O-])/C=C/c1ccc(-c2ccccc2)o1
→ u | u
CCc1cc(=O)n(CC(=O)Nc2ccc(C)cc2C)c(-c2ccccc2)n1
→ 7% | 2%
COC(=O)c1ccc(NC(=O)C(=O)NCC(c2cccnc2)N2CCc3ccccc32)cc1 (stereo not given)
→ -9% | -10%

The line under a structure holds: StopGo FLuc | StopGo RLuc
CCOc1ccc(C2(c3cccc(F)c3)CCCCC2)cc1
→ 10% | -3%
O=c1cc(-c2ccccc2)nc(SCc2nc(-c3ccc(Cl)cc3)no2)[nH]1
→ -19% | -16%
O=[N+]([O-])c1ccc(-c2cc(-c3cccnc3)nc3ccc4ccccc4c23)cc1
→ -11% | -1%
CCc1ccc2oc(C(=O)N(Cc3ccc(N(C)C)cc3)Cc3ccco3)c(C)c2c1
→ 0% | 0%
CCS(=O)(=O)NCCc1csc2nc(-c3ccc(OC)cc3)nn12
→ 14% | 30%[activator]
CCOC(=O)c1[nH]c2ccc(F)cc2c1NC(=O)c1ccccc1F
→ 6% | 3%
Cn1c(=O)c2sccc2n2c(CCCC(=O)NCc3ccccc3)nnc12
→ 4% | -15%
Cc1nc2c(-c3ccccc3)c(C)nn2c(C)c1CCC(=O)Nc1ccccc1F
→ -3% | -2%
CN(Cc1ccccc1Br)c1ccc(S(N)(=O)=O)cn1
→ 2% | -1%
O=C1CC(c2ccc(O)cc2)c2ncn(-c3ccccc3)c2N1 (stereo not given)
→ 19% | 12%
CCCCc1ccc(NC(=O)c2ccccc2SC)cc1
→ 175%[activator] | 12%
COCCn1c(C)cc(O)c(C(c2ccccc2)N2CCN(c3ccccc3F)CC2)c1=O (stereo not given)
→ -26% | 16%
O=C(COc1cccc2ccccc12)N/N=C/c1ccc(O[C@@H]2O[C@H](CO)[C@@H](O)[C@H](O)[C@H]2O)cc1
→ 17% | 14%
COC(=O)C(C)N1C(=O)S/C(=C/c2ccc(OC)cc2)C1=O (stereo not given)
→ 184%[activator] | 18%
COc1ccc(NC(=O)c2ncoc2-c2cccc(OC)c2)cc1
→ 63%[activator] | 10%

One compound at a time (already shown). Screens in order: StopGo FLuc | StopGo RLuc
Cc1cccc(Nc2nc(-c3ccccc3)cs2)c1C across the screens: 235%[activator] | 15%
O=c1cc(-c2ccccc2)nc(SCc2nc(-c3ccc(Cl)cc3)no2)[nH]1 across the screens: -19% | -16%
COc1ccc(CCNC(=O)c2ccc(Cn3c(SCC(=O)NCCC(C)C)nc4cc5c(cc4c3=O)OCO5)cc2)cc1OC across the screens: -5% | -9%

More structures
The line under a structure holds: StopGo FLuc | StopGo RLuc
O=C(Cc1ccc(Cl)cc1)Nc1ccc2nn(-c3ccc(Cl)cc3)nc2c1
→ -10% | -7%
Cc1csc(SCC(=O)Nc2ccc(C(N)=O)cc2)n1
→ 25% | 2%
CCOc1cc2[nH]c(=O)n(Cc3ccc(C(=O)NCCN(CC)CC)cc3)c(=O)c2cc1OCC
→ -14% | -7%
O=C(O)CCCN1CCCCCC1
→ 8% | -6%
COc1ccc(-n2nc(C(=O)Nc3cc(OC)c(OC)c(OC)c3)c(=O)n(C)c2=O)cc1
→ 24% | 6%
CCN(CC)C(=S)SCC(=O)c1ccc(OC)cc1
→ 44%[activator] | 9%
CCCCC(=O)Oc1ccc2oc(-c3ccc(OC)cc3)cc(=O)c2c1
→ 211%[activator] | 30%[activator]
Cc1[nH]c2ccccc2c1C(=O)CSc1nnnn1C1CC1
→ 0% | 5%
Cc1c(Cl)cccc1Nc1nnc(SCC(=O)Nc2ccnn2C2CCCC2)s1
→ u | u
CCOC(=O)c1cc2c(=O)n3ccccc3nc2n(Cc2ccco2)c1=NC(=O)c1ccc(C)c(C)c1
→ 93%[activator] | 93%[activator]
COc1ccc(C(=O)c2oc3ccccc3c2NC(=O)COc2ccccc2)cc1
→ 17% | 10%
Cc1cccc(Nc2c3c(nc4ccccc24)CCC3)c1
→ u | u
CN(CCOC(=O)c1ccc(F)cc1)C(C)(C)C
→ -5% | -9%
CCn1cnc2c1c(=O)n(CC(=O)OC(C)C(N)=O)c(=O)n2Cc1ccccc1 (stereo not given)
→ -4% | -6%
